# NPC1 promoter act = qHTS Assay for NPC1 Promoter Activators; Huh7 NPC1 promoter luciferase reporter, 24 h; Potency, µM (highest dose often 9.22 µM), for inactives: top-dose activation, hits mostly activators; 320,000 compounds, 2.4% hits; AID 485313, 2010;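 further: potency means the concentration at half of the fitted maximal effect; % of control where 0% means no effect; nearly all actives have a fitted effect of over 60% in size; reporter is driven by a mutant NPC1 promoter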
#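 In 1536-well qHTS, Huh7 cells harboring an NPC1 promoter–luciferase construct received compound for 24 h; activation was quantified by luminescence following luciferase reagent addition.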
# BRCA1 expr up = qHTS Assay to Identify Small Molecule Activators of BRCA1 Expression; MCF7-BRCA1-FFLuc reporter, luminescence, 48 h; response scale: scaled: vehicle 0%, 10 µM genistein 100%; Potency, µM (top dose mostly 46.1 µM), for the others: at the highest dose activation, hits mostly activators; 380,000 compounds, 1.1% hits; AID 624202, 2012; further: potency means the concentration at half of the fitted maximal effect; nearly all actives have a fitted effect of over 80% in size; some results filed as inactive show a strong effect at the top dose
#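 First, MCF7-BRCA1-FFLuc cells (2000/well) attach for 2 h; next, compounds are pin-added and incubated 48 h at 37 °C; finally, luciferase reagent is added and luminescence read after 15 min.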
# Menin-MLL TR inh = qHTS Assay for Inhibitors Targeting the Menin-MLL Interaction in MLL Related Leukemias: Competition With Texas Red Labeled MLL-derived Mutant Peptide. 270,000 compounds, 0.23% hits. Potency, µM (doses to about 61.6 µM), for inactives: top-dose FP activity change, negative = inhibition, actives largely listed as inhibitors. Menin + Texas Red MLL mutant peptide, fluorescence polarization. O00255; active means well fitted inhibition curve with a large enough effect in the polarisation, with a control signal flat, not every such curve was filed as active; inconclusive means small, poorly fitted or top-dose-only effect, or effect the other way, or a change in a side signal; inactive means no such curve, though single readings can be large or run the other way; the % refers to the polarisation; further: potency means the concentration at half of the fitted maximal effect; % of control where 0% means no effect; many of its hits are not listed in these tables
# ELG1 genotox = qHTS screen for small molecules that induce genotoxicity in human embryonic kidney (HEK293T) cells expressing luciferase-tagged ELG1; HEK293T ELG1-luciferase reporter, luminescence, 16 h; Potency, µM (series often up to 46 µM), inactives show at the highest dose activity change, positive = activation, actives largely listed as activators; 330,000 compounds, 1.3% hits; AID 504466, 2011; further: potency means the concentration at half of the fitted maximal effect; % of control where 0% means no effect; nearly all actives have a fitted effect of over 60% in size
#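 DMSO vehicle served as control against compound-treated ELG1-luciferase HEK293T cells; exposure lasted 16 hr at 37 °C and 5% CO2, followed by ONE-Glo luminescence detection after 30 min.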
# Giardia killer = Small Molecules that selectively kill Giardia lamblia: qHTS | 340,000 compounds, 0.15% hits | activity change, % at 7.66 µM, hits read low | AID 540267, 2011 | Giardia lamblia trophozoite viability; in the data active means activity change below about -80%; inconclusive means between about -30% and that limit;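 further: parasites exposed to compound for two days anaerobically before the ATP read; on the % scale 0 is the no-effect control and ±100 the full control effect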
#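 Trophozoites 100 cells/well + cpd; 48 hrs, 37 deg C, anaerobic. ATPLite 1-Step added, 15-30 min RT, luminescence read (ATP-based viability).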
# Gal4-VP16 FLuc = VP16 counterscreen qHTS for inhibitors of ROR gamma transcriptional activity; Drosophila S2 Gal4-VP16 UAS-luciferase, luminescence, 20 h; Potency, µM (titrated, usually from 53.6 µM), for the others: at the highest dose activity, negative = inhibition, actives largely listed as inhibitors; 310,000 compounds, 3.5% hits; AID 2546, 2010;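 further: Gal4-VP16 expression switched on by copper sulfate through the metallothionein promoter; potency means the concentration at half of the fitted maximal effect; on the % scale 0 is the no-effect control and ±100 the full control effect; nearly all actives have a fitted effect of over 50% in size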
# Rab9 prom act = qHTS Assay for Rab9 Promoter Activators | Huh7 Rab9 promoter-luciferase reporter, luminescence, 24 h | Potency, µM (doses to about 9.22 µM), without a hit: at the highest dose activation, negative = inhibition, hits mostly activators | 320,000 compounds, 2.8% hits; further: potency means the concentration at half of the fitted maximal effect; % of control where 0% means no effect; nearly all actives have a fitted effect of over 60% in size
#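 Luminescence read-out: Huh7 cells stably expressing Rab9-luciferase, treated 24 h with compound at 37 °C, then lysed with luciferase reagent for 10 min at ambient before reading.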
# RORgamma inh = qHTS for inhibitors of ROR gamma transcriptional activity; Nuclear receptor ROR-gamma (Mus musculus), P51450; Potency, µM (titrated, usually from 53.6 µM), without a hit: at the top dose activity change, negative = inhibition, usual class: inhibitors; Drosophila S2 Gal4-RORgamma UAS-luciferase reporter, 20 h; 310,000 compounds, 5.4% hits; further: potency means the concentration at half of the fitted maximal effect; on the % scale 0 is the no-effect control and ±100 the full control effect; nearly all actives have a fitted effect of over 60% in size
# Target sequence (P51450 whole entry, looked up, the tested form may be a part): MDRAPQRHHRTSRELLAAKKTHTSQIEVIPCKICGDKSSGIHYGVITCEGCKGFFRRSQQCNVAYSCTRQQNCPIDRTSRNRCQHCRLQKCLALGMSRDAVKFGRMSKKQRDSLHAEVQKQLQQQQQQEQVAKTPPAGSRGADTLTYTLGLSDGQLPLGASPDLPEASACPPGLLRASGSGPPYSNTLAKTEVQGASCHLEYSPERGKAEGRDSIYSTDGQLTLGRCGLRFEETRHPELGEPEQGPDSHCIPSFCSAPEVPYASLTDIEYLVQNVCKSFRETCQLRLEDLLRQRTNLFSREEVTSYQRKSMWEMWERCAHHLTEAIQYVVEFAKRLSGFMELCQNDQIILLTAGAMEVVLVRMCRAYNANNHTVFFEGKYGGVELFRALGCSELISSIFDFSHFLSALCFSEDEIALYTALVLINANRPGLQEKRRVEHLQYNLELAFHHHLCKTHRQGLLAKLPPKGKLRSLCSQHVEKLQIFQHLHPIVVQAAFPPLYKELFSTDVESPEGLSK
#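 A Gal4/UAS one-hybrid system in insect cells: metallothionein-promoter Gal4–ROR gamma fusion plus Photinus luciferase reporter. Copper sulfate 700 uM final, 20 hr ambient incubation, luminescent detection after 10 min with reagent.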
# PKM2 activator = qHTS Assay for Activators of Human Muscle isoform 2 Pyruvate Kinase | 260,000 compounds, 0.34% hits | AID 1631, 2009 | Pyruvate kinase PKM (Homo sapiens), P14618 | Potency, µM (titrated, usually from 57.5 µM), for the others: at the top dose activation, hits mostly activators | purified PKM2, Kinase-Glo ATP luminescence, activation; response scale: 0% is enzyme alone, no compound; further: potency means the concentration at half of the fitted maximal effect; on the % scale 0 is the no-effect control and ±100 the full control effect; nearly all actives have a fitted effect of over 55% in size
# Target sequence (P14618 whole entry, looked up, canonical isoform): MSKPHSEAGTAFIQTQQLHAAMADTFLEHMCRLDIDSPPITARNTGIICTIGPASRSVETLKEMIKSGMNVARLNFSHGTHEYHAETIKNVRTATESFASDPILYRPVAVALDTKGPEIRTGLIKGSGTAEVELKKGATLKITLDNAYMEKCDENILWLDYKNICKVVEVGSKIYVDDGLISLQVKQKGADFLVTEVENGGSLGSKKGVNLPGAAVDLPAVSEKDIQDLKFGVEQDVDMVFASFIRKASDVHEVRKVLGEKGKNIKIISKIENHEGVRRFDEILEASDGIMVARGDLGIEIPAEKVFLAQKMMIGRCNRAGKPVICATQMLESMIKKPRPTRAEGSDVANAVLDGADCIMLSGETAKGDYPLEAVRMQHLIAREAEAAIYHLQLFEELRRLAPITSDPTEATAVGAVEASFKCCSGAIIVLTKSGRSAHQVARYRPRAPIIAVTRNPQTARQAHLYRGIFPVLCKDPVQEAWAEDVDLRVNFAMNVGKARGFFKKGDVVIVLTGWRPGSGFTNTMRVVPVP
#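 ATP formation by purified human PK-M2, quantified via coupled luciferase luminescence after 1 h at room temperature with 0.1 mM ADP and 0.5 mM PEP final.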
# * marks the source's active call; other numbers are inactive results; ? = inconclusive; . = not tested or not shown; & = joins results of further samples; [ ] = remark or other dose. Unless noted, the call rests on the fitted dose curve; in most records, active means well fitted curve in the direction sought with a large enough effect; inconclusive means small, poorly fitted or top-dose-only effect, or another doubt; inactive means no such curve, though single readings can be large; an effect the other way counts as inactive or inconclusive.
# Assay codes: A = NPC1 promoter act; B = BRCA1 expr up; C = Menin-MLL TR inh; D = ELG1 genotox; E = Giardia killer; F = Gal4-VP16 FLuc; G = Rab9 prom act; H = RORgamma inh; I = PKM2 activator
CN1CCN2c3ccccc3Cc3ccccc3[C@@H]2C1
  A = .	B = .	C = -5%&-15%[24.8 µM]	D = .	E = .	F = 3%	G = .	H = 0%	I = .

O=C(O)/C=C/c1ccc(O)c(O)c1
  A = 5%[46.1 µM]	B = 13%	C = -4%	D = 1%	E = -14	F = -1%&3%&-1%&1%&-12%	G = 0%[46.1 µM]	H = ?	I = 13%

Nc1n[nH]c(CO)n1
  A = 1%	B = 0%	C = 8%	D = -2%	E = -4	F = -16%	G = -2%	H = -18%	I = -4%

CN(C)/N=N\c1nc[nH]c1C(N)=O
  A = .	B = .	C = 6%[24.8 µM]	D = .	E = .	F = 5%[17 µM]	G = .	H = 8%[16.9 µM]	I = .

CCC(=O)O[C@@H]1CC(=O)O[C@H](C)CC=CC=C[C@@H](O)[C@H](C)C[C@H](CC=O)[C@H](O[C@H]2O[C@H](C)[C@@H](O[C@H]3C[C@@](C)(O)[C@@H](OC(=O)CC)[C@H](C)O3)[C@H](N(C)C)[C@H]2O)[C@H]1OC
  A = -4%	B = .	C = .	D = -1%	E = .	F = 1%	G = -4%	H = 13%	I = -11%

Cc1c(N)cccc1N
  A = -1%	B = 8%	C = .	D = 0%	E = 19	F = -1%	G = 2%	H = 12%	I = .

CC(C)NC[C@@H](O)COc1cccc2ccccc12
  A = -1%	B = 4%	C = -1%	D = -1%	E = 13	F = -8%	G = 2%	H = -16%[10 µM]	I = .

CC(=O)OCC1=C(C(=O)O)N2C(=O)C(NC(=O)CSc3ccncc3)[C@@H]2SC1 (some centres undefined)
  A = .	B = .	C = -3%	D = .	E = .	F = -3%	G = .	H = 8%	I = .

CCN1CCN(CC(=O)Nc2nc3ccccc3s2)CC1
  A = -1%	B = 62%	C = 2%	D = 7%	E = 4	F = 0%	G = 1%	H = 6%	I = -7%

Cc1ncc([N+](=O)[O-])n1CC(O)CCl (centres undefined)
  A = -1%	B = -1%	C = -8%	D = 2%	E = ?	F = -3%	G = -1%	H = -6%	I = -4%

CN(C)CCCN=c1cc(-c2ccccc2)oc2ccc(Cl)cc12
  A = 12%	B = 11µM*	C = -22%	D = ?	E = -86*	F = -21%	G = 16%	H = ?	I = -4%

C[C@H](CCC(=O)O)[C@H]1CC[C@H]2[C@@H]3C(=O)C[C@@H]4CC(=O)CC[C@]4(C)[C@H]3CC(=O)[C@]12C
  A = 0%	B = 0%	C = 0%	D = 0%	E = 5	F = 5%	G = -6%	H = -23%	I = -14%

COc1ccc(C[C@H](N)C(=O)N[C@H]2[C@@H](O)[C@H](n3cnc4c(N(C)C)ncnc43)O[C@@H]2CO)cc1
  A = -36%[inhibitor]	B = -63%	C = .	D = -58%[inhibitor]	E = 1	F = .	G = -46%[inhibitor]	H = .	I = .

COc1cc(NS(C)(=O)=O)ccc1Nc1c2ccccc2nc2ccccc12
  A = -24%[46.1 µM]	B = -29%	C = 8%	D = ?	E = -13	F = 1%	G = -38%[inhibitor][46.1 µM]	H = 20µM*	I = .

C=C1C[C@]23C[C@@]1(O)CC[C@H]2[C@@]12C=C[C@H](O)[C@@](C)(C(=O)O1)[C@H]2[C@@H]3C(=O)O
  A = 0%&-1%	B = 13%&15%	C = .	D = -9%&0%	E = -4&6	F = -8%	G = 3%&-2%	H = 25%	I = .

# Looked up above.
# For NPC1 promoter act, CC(C)NC[C@@H](O)COc1cccc2ccccc12 is listed with -1%
# For Menin-MLL TR inh, CC(=O)OCC1=C(C(=O)O)N2C(=O)C(NC(=O)CSc3ccncc3)[C@@H]2SC1 (some centres undefined) is listed with -3%
# For PKM2 activator, CN(C)CCCN=c1cc(-c2ccccc2)oc2ccc(Cl)cc12 is listed with -4%
# For Rab9 prom act, O=C(O)/C=C/c1ccc(O)c(O)c1 is listed with 0%[46.1 µM]
# For Rab9 prom act, COc1cc(NS(C)(=O)=O)ccc1Nc1c2ccccc2nc2ccccc12 is listed with -38%[inhibitor][46.1 µM]

# (list continues)
# Assay codes: A = NPC1 promoter act; B = BRCA1 expr up; C = Menin-MLL TR inh; D = ELG1 genotox; E = Giardia killer; F = Gal4-VP16 FLuc; G = Rab9 prom act; H = RORgamma inh; I = PKM2 activator
CCC1(c2ccccc2)NC(=O)N(C)C1=O (centres undefined)
  A = -2%	B = 0%	C = 3%	D = -11%	E = 4	F = 5%	G = -1%	H = 13%	I = .

CN(C)N=Nc1nc[nH]c1C(N)=O
  A = 3%	B = 2%	C = .	D = -5%	E = 20	F = .	G = 0%	H = .	I = .

CC[C@@H]1OC(=O)[C@H](C)[C@H](O[C@@H]2C[C@](C)(OC)[C@H](O)[C@H](C)O2)[C@H](C)[C@H](O[C@@H]2O[C@@H](C)C[C@@H](N(C)C)[C@@H]2O)[C@](C)(O)C[C@H](C)C(=NOCOCCOC)[C@H](C)[C@H](O)[C@]1(C)O
  A = .	B = .	C = -1%[24.8 µM]	D = .	E = .	F = ?	G = .	H = 19%[2.98 µM]	I = .

O=c1/c(=C/c2ccc(O)cc2)sc2n1CCCN=2
  A = 1%	B = ?	C = -11%	D = ?	E = -21	F = -6%	G = 2.8µM*	H = -5%	I = -2%

Cc1ccccc1N=C(N)Nc1ccccc1C
  A = 0%	B = -22%	C = 3%[24.8 µM]	D = -3%	E = -23	F = 4%	G = -8%	H = 15%	I = .

COc1ccc2cc1Oc1ccc(cc1)C[C@H]1c3c(cc4c(c3Oc3cc5c(cc3OC)CCN(C)[C@@H]5C2)OCO4)CCN1C
  A = -35%[inhibitor]	B = -11%	C = ?	D = 19%	E = -24	F = -12%&-5%	G = -26%	H = ?	I = 6%

COc1cccc(C2C3=C(CC(C)(C)CC3=O)Nc3n[nH]c(C)c32)c1 (centres undefined)
  A = -1%	B = -14%	C = -1%	D = 5%	E = 15	F = 11%	G = -2%	H = 17%	I = 7%

OC1C(O)C(O)C(O)C(O)C1O (centres undefined)
  A = 1%&0%&0%	B = -25%&3%&11%	C = 8%	D = 8%&2%&11%	E = -11&18&-21	F = -5%	G = 0%&-3%&-3%	H = 3%	I = .

CCC(NC(C)C)C(O)c1ccc(O)c(O)c1 (centres undefined)
  A = 64%[46.1 µM]	B = 5%	C = 0%&-1%	D = -3%	E = 8	F = -13%	G = 93%[46.1 µM]	H = 2%	I = 2%

CCCCN(CCO)CCCC
  A = 0%	B = -6%	C = .	D = 1%	E = 5	F = -4%	G = -2%	H = -3%	I = .

COc1cc(NCCCC(C)N)c2ncccc2c1 (centres undefined)
  A = -23%	B = -105%	C = ?	D = -26%	E = -12	F = ?	G = -38%[inhibitor]	H = 2.2µM*	I = -14%

CCN1CCN(c2cc3c(cc2F)c(=O)c(C(=O)O)cn3C2CC2)CC1
  A = 0%	B = 0%	C = 2%&-2%	D = 1%	E = 12	F = 1%&-1%	G = -7%	H = -32%&-1%	I = -2%

c1ccc2c(c1)-c1cccc3c1c-2cc1ccccc13
  A = 22%	B = .	C = .	D = 5%	E = .	F = -10%	G = -3%	H = 0%	I = .

Nc1ncn([C@H]2C[C@H](O)[C@@H](CO)O2)c(=O)n1
  A = -3%	B = -16%	C = .	D = ?	E = ?	F = .	G = -3%	H = .	I = .

COc1cc2c(cc1OC)[C@@H]1CC(=O)[C@@H](CC(C)C)CN1CC2
  A = .	B = .	C = -3%	D = .	E = .	F = -7%	G = .	H = -2%	I = 2%

# Next part
# Assay codes: A = NPC1 promoter act; B = BRCA1 expr up; C = Menin-MLL TR inh; D = ELG1 genotox; E = Giardia killer; F = Gal4-VP16 FLuc; G = Rab9 prom act; H = RORgamma inh; I = PKM2 activator
OC/C(Br)=C(\Br)CO
  A = -4%	B = 1%	C = .	D = 1%	E = ?	F = -2%	G = 0%	H = 9%	I = .

CCC(NC(=O)C(C)NC)C(=O)N1CCCC1C(=O)NC1CCCc2ccccc21 (centres undefined)
  A = 1%	B = 9%	C = .	D = 15%	E = 0	F = .	G = -2%	H = .	I = .

COc1nccnc1NS(=O)(=O)c1ccc(N)cc1
  A = -3%	B = 3%	C = ?	D = -1%	E = -8	F = -6%&-16%	G = 0%	H = -3%	I = .

CC(=O)OCC(=O)C1CCC2C3CCC4=CC(=O)CC[C@@]4(C)C3CC[C@]12C (some centres undefined)
  A = .	B = .	C = 2%	D = .	E = .	F = 0%	G = .	H = 3%	I = .

CC(C)NC[C@H](O)COc1cccc2ccccc12
  A = 7%[46.1 µM]	B = 6%	C = 4%[24.8 µM]	D = .	E = -23	F = 7%	G = -7%[46.1 µM]	H = 12%	I = .

# Two entries picked at random from those above:
# Assay codes: A = NPC1 promoter act; B = BRCA1 expr up; C = Menin-MLL TR inh; D = ELG1 genotox; E = Giardia killer; F = Gal4-VP16 FLuc; G = Rab9 prom act; H = RORgamma inh; I = PKM2 activator
CCC(NC(C)C)C(O)c1ccc(O)c(O)c1 (centres undefined)
  A = 64%[46.1 µM]	B = 5%	C = 0%&-1%	D = -3%	E = 8	F = -13%	G = 93%[46.1 µM]	H = 2%	I = 2%

CC(C)NC[C@@H](O)COc1cccc2ccccc12
  A = -1%	B = 4%	C = -1%	D = -1%	E = 13	F = -8%	G = 2%	H = -16%[10 µM]	I = .

# Screening data (PubChem)

# Not all compounds are listed, so the mix of outcomes need not match the whole.
